Screening data: PubChem, National Center for Advancing Translational Sciences (NCATS)
Cruzain inh Det – blocks cruzain activity in presence of Triton detergent | P25779 | purified cruzain, Z-FR-AMC fluorescence, 0.01% Triton | Potency, µM, for the others: max response, negative = inhibition, actives largely listed as inhibitors | actives 0.43% (n = 200,000) | AID 1478; active = well fitted curve in the direction sought with a large enough effect; inconclusive = small, poorly fitted or top-dose-only effect, or another doubt; inactive = no such curve, though single readings can be large; an effect the other way counts as inactive or inconclusive;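 also: plate controls were neutral wells for no effect and buffer without enzyme for full effect; nearly all actives have a fitted effect of over 40% in size; top concentration of the series not given in the record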
Target sequence (P25779 123-467 limits assumed): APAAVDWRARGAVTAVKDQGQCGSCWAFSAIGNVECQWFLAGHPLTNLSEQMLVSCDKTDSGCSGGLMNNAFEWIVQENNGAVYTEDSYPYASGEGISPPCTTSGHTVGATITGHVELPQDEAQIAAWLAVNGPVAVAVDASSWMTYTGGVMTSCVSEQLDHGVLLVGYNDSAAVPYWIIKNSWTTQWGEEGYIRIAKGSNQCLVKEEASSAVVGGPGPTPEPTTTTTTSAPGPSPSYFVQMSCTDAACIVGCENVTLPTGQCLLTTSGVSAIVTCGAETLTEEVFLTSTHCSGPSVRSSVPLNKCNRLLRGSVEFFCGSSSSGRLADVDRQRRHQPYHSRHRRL
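Detergent-containing arm of a paired screen for aggregation-based inhibition: 0.01% Triton X-100 present. Cruzain at 1.5 nM cleaved 2 uM Z-FR-AMC at pH 5.5 with 5 mM DTT; AMC fluorescence gain over 60 s measured activity.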
2A StopGo – lowers the luciferase signal of an FMDV 2A StopGo reporter; human cells with a luciferase reporter of 2A StopGo recoding; control for the full effect not named in the record; Potency, µM (titrated, usually from 57.9 µM), without a hit: top-dose signal change, negative = less light; actives 1.2% (n = 410,000); active = well fitted falling curve with a large enough effect; inconclusive = small, poorly fitted or top-dose-only effect; inactive = no such curve, though single readings can be large or run the other way; tested in HEK293T cells; also: % is scaled to controls: 0 for no effect and ±100 for the full control effect; nearly all actives have a fitted effect of over 45% in size; luciferase light after 4 h
Lassa entry inh – inhibitors of Lassa virus binding or cell entry; Lassa virus pseudotype entry inhibition, cell reporter; control for the full effect not named in the record; Potency, µM (highest dose often 37.9 µM), inactives show at the top dose activity change, negative = inhibition, hits mostly inhibitors; actives 1.2% (n = 300,000); AID 540256; active means well fitted inhibition curve with a large enough effect; inconclusive means small, poorly fitted or top-dose-only effect, or effect the other way; inactive means flat fitted curve, though single readings scatter; tested in HEK293 cells; also: % is scaled to controls: 0 for no effect and ±100 for the full control effect; nearly all actives have a fitted effect of over 50% in size; luciferase read-out
RE007 growth inh – less growth of the S. pombe RE007 Vpr strain; S. pombe RE007 Vpr strain, BacTiter-Glo ATP luminescence, 24 h; control for the full effect not named in the record; actives 0.21% (n = 360,000); AID 651644; Potency, µM (doses to about 92.2 µM), inactives show at the highest dose activity change, negative = less growth; active = well fitted falling curve with a large enough effect; inconclusive = small, poorly fitted or top-dose-only effect; inactive = no such curve, though single readings can be large or run the other way;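 also: % is scaled to controls: 0 for no effect and ±100 for the full control effect; nearly all actives have a fitted effect of over 50% in size; the assay follows cell death caused by Vpr and the record does not say whether a fall means rescue or toxicity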
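Fission yeast strain RE007, carrying one chromosomally integrated HIV-1 vpr copy, was seeded at OD 0.01 in PMG+AL medium with 23 nL pinned compound. After 24 h at 30 °C and 99% humidity, viability was read by BacTiter-Glo luminescence.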
Marburg entry inh – Marburg virus entry inhibition; Marburg virus pseudotyped entry inhibition, cell reporter; control for the full effect not named in the record; about a third of the inactives were read at about 46 µM; Potency, µM (top dose mostly 37.8 µM), inactives show at the highest dose activity change, negative = inhibition, most hits filed as inhibitors; actives 1.8% (n = 300,000); active = well fitted inhibition curve with a large enough effect; inconclusive = small, poorly fitted or top-dose-only effect, or effect the other way; inactive = flat fitted curve, though single readings scatter; tested in HEK293 cells; about a fifth of its hits are not listed in these tables; also: % is scaled to controls: 0 for no effect and ±100 for the full control effect; luciferase read-out
Cruzain inh noDet – cruzain (T. cruzi) inhibition without detergent; P25779; purified cruzain, Z-FR-AMC fluorescence, no detergent; Potency, µM, for the others: max response, negative = inhibition, hits mostly inhibitors; actives 2.3% (n = 200,000); active = well fitted curve in the direction sought with a large enough effect; inconclusive = small, poorly fitted or top-dose-only effect, or another doubt; inactive = no such curve, though single readings can be large; an effect the other way counts as inactive or inconclusive;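 also: plate controls were enzyme without inhibitor for no effect and buffer without enzyme for full effect; nearly all actives have a fitted effect of over 40% in size; top concentration of the series not given in the record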
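Detergent-free condition (0.00005% Triton X-100) in acetate buffer pH 5.5 with DTT. 1.5 nM enzyme and compound were pre-mixed 15 min, then 2 uM Z-FR-AMC substrate added; reaction progress from fluorescence change between first and third reads (60 s).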
SARS PLP yeast – blocks SARS-CoV papain-like protease in a yeast assay. S. cerevisiae expressing SARS-CoV PLpro, growth rescue; control for the full effect not named in the record. Potency, µM (top dose mostly 32.9 µM), without a hit: at the highest dose activity, positive = growth rescue. actives 0.19% (n = 330,000). AID 485353; also: 0% is about no effect; nearly all actives have a fitted effect of over 55% in size; growth read by luminescence after 48 h
NS1 function inh – influenza NS1 inhibition. S. cerevisiae slowed by influenza A NS1, growth recovery by OD600. Potency, µM (highest dose often 46.1 µM), for inactives: at the highest dose activity, positive = more growth. actives 0.4% (n = 270,000). AID 2326; also: actives are rising curves; nearly all actives have a fitted effect of over 50% in size
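Recovery from NS1-induced slow growth read by OD600 in budding yeast switched to galactose assay medium (pH 6.0, -URA) at 1:100 dilution. Compound 23 nl per well; the matching strain lacking NS1 serves as control.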
* = called active by the depositor; ? = inconclusive; / = no result given; [ ] = remark or other dose. Unless noted, calls follow the shape of the dose curve; as a rule, active means well fitted rising curve with a large enough effect; inconclusive means small, poorly fitted or top-dose-only effect; inactive means no such curve, though single readings can be large or run the other way. Potency is read from the fitted curve at half-maximal effect. Compounds as they come, and some 4.5% of all compounds hit somewhere here.

SMILES,Lassa entry inh,Cruzain inh Det,Cruzain inh noDet,NS1 function inh,RE007 growth inh,Marburg entry inh,SARS PLP yeast,2A StopGo
CN(C)/C=C1\Cc2ccccc2C1=O,-4%,/,/,0%,1%,?,-2%,6%
O=C(NCC(=O)N1CCN(Cc2ccccc2)CC1)c1ccc(Br)o1,-18%[46.1 µM],/,/,-5%,2%,22%[46.1 µM],?,5%
Cc1cc(C)n2cc(CSc3ccc(Br)cc3)nc2n1,4%[46.1 µM],/,/,/,4%,30%[46.1 µM],-3%,19%
Cc1cccc(OCc2n[nH]c(=S)n2Cc2ccccc2)c1,6%,/,/,6%,-1%,-5%[46.1 µM],0%,-25%
COc1ccc(NC(=O)CSc2nnnn2-c2ccc(F)cc2)cc1,11%[46.1 µM],/,/,-1%,7%,-1%[46.1 µM],0%,-18%
Cc1ccc(S(=O)(=O)N2CCc3cc4c(cc3C2C)OCCCO4)cc1 (stereo not given),?,/,/,-33%,3%,-28%[46.1 µM],5%,-7%
CCCCNC(=O)NS(=O)(=O)c1ccc(C(=O)OC)o1,2%,-0.2%,-8%,11%,-2%,-2%[46.1 µM],-4%,-8%
CCOC(=O)C1(CCc2ccccc2)CCN(Cc2nccn2CC)CC1,5%,/,/,3%,-16%,?,8%,-7%
Cn1c(=O)c2c(n(Cc3ccccc3)c1=O)NC(=O)C2CC(=O)O (stereo not given),-11%,5.7%,3%,?,12%,-1%[46.1 µM],-6%,-21%
COC(=O)C1=CN(c2cccc(C)c2)C=C(C(=O)OC)C1c1cc(OC)c(O)c([N+](=O)[O-])c1,4.1µM*,-1.6%,?,24%,9%,?,-5%,-13%
CN(C)S(=O)(=O)Nc1ccc2c(c1)Cc1ccccc1-2,?,-2.0%,-8%,-11%,-6%,8%,-5%,68%[activator]
COc1ccc(NC2=Nc3ccccc3CC2)cc1,?,-6.4%,-20%,1%,-2%,?,10%,/
CCn1c(SCC(=O)Nc2cccc(C)c2)nc2ccccc2c1=O,-22%[46.1 µM],/,/,-10%,4%,?,-3%,-6%
Cc1ccc(N(C)S(=O)(=O)c2c(C)noc2/C=C/N(C)C)cc1,/,/,/,8%,-2%,/,-56%,-9%
COc1cc(/C=N/NC2=NS(=O)(=O)c3ccccc32)ccc1OC(C)=O,12%,/,/,7%,11%,?,1%,11%
COC(=O)C(CC(C)C)NC(=O)c1ccc(F)cc1 (stereo not given),6%,-5.5%,-6%,-3%,0%,?,2%,/
CCCCC1NC(C(=O)O)CS1 (stereo not given),13%,-1.3%,10%,-3%,4%,0%,-9%,-1%
CCOc1ccc(N(C(=O)c2cc3ccccc3oc2=O)C2C=CS(=O)(=O)C2)cc1 (stereo not given),3%,/,/,/,9%,-11%,0%,-4%
Cc1cc(SCC(=O)OCC(=O)N(C)C2CCS(=O)(=O)C2)c(C)cc1Br (stereo not given),-9%,/,/,/,13%,-3%,-4%,-15%
COc1cc(NC(=O)c2cc3nc(C)cc(C)n3n2)c(OC)cc1Cl,?,-1.9%,?,11%,25%,6%,-1%,31%[activator]
O=C1C2C3C=CC(C4CC34)C2C(=O)N1Cc1ccco1 (stereo not given),2%,-0.1%,0%,-5%,1%,-2%,-1%,-22%
Oc1ccc(Cl)cc1C=Nc1ccc2c3c(cccc13)CC2,15%,-2.8%,?,14%,-22%,-1%,-18%,8%
CCC(C)(C(=O)NC1CCCCC1)N(C(=O)C1CCC(=O)N1)c1ccccc1 (stereo not given),18%,-7.9%,5%,-6%,5%,1%,1%,7%
COc1cc(Cl)c(C)cc1NC(=O)COc1cc(C)nc(C(C)C)n1,16%,-3.5%,8%,-2%,14%,-1%,2%,-2%
CCNC(=O)CSc1nnc(-c2cccc(S(=O)(=O)N3CCOCC3)c2)o1,27%,/,/,/,-2%,19%[46.1 µM],0%,-6%
N#CCSc1nc2ccccc2c(=O)n1CCC(=O)NCCc1ccccc1,-1%,4.1%,?,11%,6%[3.69 µM],3%,-9%,5%
CCOc1ccccc1CNc1ncnc2onc(-c3ccc(F)cc3)c12,23%[46.1 µM],-1.5%,5%,/,/,/,/,?
CN(C(=O)c1ccc(-c2ccccc2)cc1)C1CCCCC1,?,/,/,/,-9%,?,/,24%
O=C(NCc1cccc(Br)c1)C1CCN(C(=O)c2sccc2-n2cccc2)CC1,/,-3.7%,19%,/,/,-23%[46.1 µM],/,12%
O=[N+]([O-])c1ccc(-c2csc(Nc3ccccc3)[n+]2Cc2ccccc2)cc1,-2%,-2.9%,-12%,26%,-8%,12%,-36%,-14%
Cc1ccc(NC(=O)CN2C(=O)COc3ccc(S(=O)(=O)N4CCCCC4)cc32)cc1N(C)C,19%[46.1 µM],-2.1%,-8%,/,/,/,/,-12%
CCN(CC)CCCC(C)N=C(c1ccccc1)c1c(O)n(C)c(=O)n(C)c1=O (stereo not given),4%,14%,1%,-1%,22%,-2%,4%,-1%
Cc1cccc(NC(=O)CCc2c(C)nn(-c3ccc(N4CCOCC4)nn3)c2C)c1,?,/,/,-14%,-5%,20%[46.1 µM],13%,19%
C=CCc1ccccc1OCCCCN1CCCC1,?,3.2%,1%,1%,14%,?,16%,-10%
O=C(Cc1c(F)cccc1Cl)N1CCN(C(=O)c2ccco2)CC1,-13%,-1.2%,-10%,2%,-1%,12%,3%,0%
CC(C)O/C(=N/S(=O)(=O)c1ccc(Cl)cc1)c1ccccc1,-5%[46.1 µM],/,/,/,-8%,1%[46.1 µM],/,4%
Cn1c(Cn2c(=O)sc3ccccc32)nnc1SCC(=O)NCc1ccc(F)cc1,/,-1.6%,-6%,5%,-2%,/,1%,-9%
Cc1ccc(F)c([C@H]2C3C=CCC(c4ccccc4)C3C(=O)N2Cc2ccccc2)c1 (stereo not given in full),/,/,/,-6%,3%,/,-8%,?
COc1ccccc1C(=O)/C=C/c1ccc(N2CCCCC2)c([N+](=O)[O-])c1,?,-5.0%,-1%,19%,6%,?,20%,35µM*
O=C(c1cccc(S(=O)(=O)N2CCN(c3ccc(F)cc3)CC2)c1)N1CCCC1,9%[46.1 µM],/,/,/,20%,1%[46.1 µM],3%,-3%
Cc1ccc2c(c1)C1CN(C)CCC1N2C(=O)Cn1cnc2c1c(=O)n(C)c(=O)n2C (stereo not given),-7%,3.4%,?,-7%,-2%,-4%,?,-5%
O=C(NCCc1ccccc1)c1cnn2c(C(F)F)cc(C3CC3)nc12,?,-4.0%,-13%,-74%,6%,?,-4%,?
Cc1cccc(N2CC(C(=O)NCCC3=CCCCC3)CC2=O)c1C (stereo not given),21%,/,/,/,29%,-16%,3%,-3%
O=C(c1ccc(C(F)(F)F)cc1)n1ccc(-c2cccs2)n1,7%,/,/,-2%,-15%,?,-1%,3%
CCOc1ccc(N(CC(=O)NC2CCCC2)S(=O)(=O)c2c(C)noc2C)cc1,/,4.9%,-7%,-15%,10%,/,-2%,-13%
Cc1nc2ccccn2c1C(=O)OCC#N,/,/,/,-1%,7%,/,-1%,-21%
COC(=O)c1cc(Cl)c(NC(=O)C(C)C)cc1OC,-5%,/,/,2%,-14%,27%[46.1 µM],0%,7%
CC(Oc1ccc2ccccc2c1)C(=O)NNC(=O)Nc1ccccc1 (stereo not given),-1%,/,/,16%,13%,5%,13%,66%[activator]
O=C(C1CC1)N1c2ccccc2Sc2ccccc21,?,/,/,-6%,17%,?,3%,?
O=C(COC(=O)CCC(=O)c1ccc(Cl)cc1)NCc1ccc(F)cc1,0%,/,/,/,-5%,?,-2%,10%

The results go on:
SMILES,Lassa entry inh,Cruzain inh Det,Cruzain inh noDet,NS1 function inh,RE007 growth inh,Marburg entry inh,SARS PLP yeast,2A StopGo
CCOC(=O)c1c(C)nc(C)c(C(=O)OCC)c1-c1ccco1,0%,/,/,2%,0%,-7%,1%,-21%
O=C(N=Nc1c(O)[nH]c2ccc(F)cc12)C1COc2ccccc2O1 (stereo not given),/,/,/,2%,5%,/,-1%,-13%
Cc1ncc(C[n+]2csc(CCOC(=O)CC34CC5CC(CC(C5)C3)C4)c2C)c(N)n1,1%,-0.1%,1%,-4%,/,2%,-18%,-17%
Cc1nc2c(-c3ccc(F)cc3)c(C)nn2c(C)c1CCC(=O)Nc1ccccc1F,/,/,/,-6%,8%,-7%,1%,?
O=C1C(=O)N(O)C2CCCCC2N1O (stereo not given),-3%,-2.8%,-9%,4%,10%,3%,8%,-20%
COc1ccccc1CNC(=O)CSc1ccc(-c2cccs2)nn1,/,/,/,/,-1%,-31%[46.1 µM],1%,-17%
Cc1nc2ccc(Cl)cc2c(-c2ccccc2)c1C(=O)N(C)C,/,/,/,4%,7%,/,3%,3%
CN(C(=O)c1ccnn1C)C1CCCN(Cc2ccccc2F)C1 (stereo not given),-8%[46.1 µM],/,/,8%,13%,-16%[46.1 µM],-4%,-3%
COc1ccccc1NC(=S)N1CC(C)OC(C)C1 (stereo not given),/,/,/,1%,-1%,/,1%,-10%
Cc1ccc(C(C)C)c(OCc2ccc(-c3nnco3)cc2)c1,-21%,-9.8%,24%,-12%,14%,?,-1%,?
O=C(NC1CCCc2ccccc21)c1ccc2c(c1)sc1nc(-c3ccccc3)cn12 (stereo not given),-8%[46.1 µM],-5.2%,?,/,/,/,/,10%
Cc1ccc2nc(/C(C#N)=C/c3ccc(O)c(O)c3)[nH]c2c1,?,/,/,?,-13%,?,11%,1%
COc1cccc(CNC(=O)COC(=O)c2cccc(S(=O)(=O)N3CCCC3)c2)c1,?,/,/,/,-9%,27%,-2%,7%
C/C=C/c1ccc(OCC(O)CN2CCCCC2CC)c(OC)c1 (stereo not given),-5%,/,/,/,-11%,-23%[46.1 µM],-2%,-9%
Cc1ccccc1C(=O)N1CCCC(N2CCN(Cc3ccc4c(c3)OCO4)CC2)C1 (stereo not given),/,/,/,14%,-6%,/,2%,?
